Bioassay records as filed in PubChem.
CSC inhib: cancer stem cell inhibition; cancer stem cell-like cells viability, luminescence; inhibition, % at 7.5 µM; hit rate 1.1% among 300,000; AID 2717;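 active means mean at 75% or more and at least half the replicates too; inconclusive means mean and replicates disagree; tested in HMLE shEcad cells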;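 further: 0% = median of negative and 100% = median of positive control wells; the first replicate is given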
Env fusion inh: blocks HIV Env-driven cell-cell fusion | HeLa-JRFL Env/CEM21 cell fusion, luciferase | inhibition, % at 12.3 µM | hit rate 1.1% among 360,000 | AID 651610;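 active means mean replicate inhibition score of at least 50 and every replicate individually at or above 50; inconclusive means only one of the two criteria met; inactive means mean below 50 and not all replicates reaching 50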;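 further: 0% = plate neutral controls and 100% = maraviroc near 300 nM; one replicate is shown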
Rce1 inh: blocks yeast Ras-converting enzyme. Q03530. yeast membranes, quenched prenylated peptide cleavage fluorescence. calls only. hit rate 0.27% among 290,000. AID 2563;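 active means fall in fluorescence gain of 50% or more versus controls, with final raw signal at or below 3038400; inconclusive means same 50% fall but final raw signal above 3038400; inactive means fall in fluorescence gain under 50%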;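 further: plate controls were neutral control wells for no effect and wells lacking membranes for full effect; tested at 10 µM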
Target sequence (Q03530 whole entry, looked up): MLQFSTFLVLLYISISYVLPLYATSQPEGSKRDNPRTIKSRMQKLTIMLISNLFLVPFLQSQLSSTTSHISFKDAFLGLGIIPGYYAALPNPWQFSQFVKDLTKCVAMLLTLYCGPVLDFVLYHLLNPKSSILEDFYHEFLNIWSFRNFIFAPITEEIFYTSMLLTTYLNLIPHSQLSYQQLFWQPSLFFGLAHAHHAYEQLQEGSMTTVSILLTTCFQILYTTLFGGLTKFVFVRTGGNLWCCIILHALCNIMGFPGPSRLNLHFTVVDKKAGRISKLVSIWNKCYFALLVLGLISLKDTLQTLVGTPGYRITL
PABP FP inh: blocks human PABP binding to poly(A) RNA; fluorescence polarization; hit rate 1% among 290,000; AID 2014; inhibition, % at 35 µM; P11940;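 active means 50% or more with normal probe brightness, or confirmed in later tests; inconclusive means above 50% with abnormal brightness, or retests that disagree; inactive means below 50% or failed in later tests; about a fifth of its hits are not listed in these tables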;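 further: calls also rest on retests at 20 µM and on dose response follow-up; controls were probe without protein and protein plus probe with vehicle; some compounds called inactive have numbers as strong as hits; many hits fall short of the cut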
UUG fidelity: yeast start codon fidelity modulation | activity score, % at 18.7 µM | hit rate 0.13% among 350,000 | S. cerevisiae UUG-firefly luciferase reporter, luminescence/redox ratio;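 active means replicate mean at a twofold rise or more, about +100% in these data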;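 further: firefly luciferase made from a UUG start codon reports start codon fidelity; reporter light over untreated wells divided by growth signal over untreated wells; some hits fall short of that in this replicate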
MT1-MMP act inh: inhibitors of human MT1-MMP activation; P50281; HT1080 RFP-PRO-GFP cells, GFP/RFP ratio fluorescence, overnight; percent of plate control window, DMSO zero; GFP/RFP ratio change, % at 20 µM; hit rate 0.061% among 360,000;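 active means GFP/RFP ratio change of at least 30% with cell ATP level not reduced by more than half and red fluorescence within 50% of control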; further: strong numbers were not always called active
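Read-out: GFP/RFP fluorescence ratio; Test system: RFP-PRO-GFP reporter HT1080 cells; Compound dosing: single-point 20 µM compound, 1% DMSO; Times: overnight compound exposure at 37 °C.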
eIF4H inh: inhibitors of RNA binding by human eIF4H | Q15056 | eIF4H fluorescence polarization binding assay | inhibition, % at 35 µM | hit rate 0.94% among 290,000;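 active means 50% or more with normal probe brightness, or confirmed in later tests; inconclusive means above 50% with abnormal brightness, or retests that disagree; inactive means below 50% or failed in later tests; about a fifth of its hits are not listed in these tables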;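 further: calls also rest on retests at 20 µM and on dose response follow-up; 0% = protein and probe with vehicle and 100% = probe without protein; strong numbers were not always called active; many hits fall short of the cut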
eIF4H inh retest: also measured in eIF4H inh; calls as there; inhibition, %; compound at 20 µM; confirmation average;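 mean of two retest wells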
PABP FP inh retest: further read-out of PABP FP inh, marked with its call; inhibition, %; compound at 20 µM; confirmation repeats;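 mean of two retest wells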
MT1-MMP act inh RFP: further read-out of MT1-MMP act inh, marked with its call; RFP signal change, %; measured here: RFP expression control read;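 0 = vehicle wells; hits needed this value within 50% of zero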
Starred values were filed as active, the others as inactive; i = inactive; ? = inconclusive; / = no result given; + = active, no number; & = joins results of further samples.

SMILES | CSC inhib | Env fusion inh | Rce1 inh | PABP FP inh | UUG fidelity | MT1-MMP act inh | MT1-MMP act inh RFP | eIF4H inh | others
COc1cc(CNCCc2ccc(F)cc2)ccc1OCc1ccc(Cl)nc1 | -11 | / | i | 1 | -2 | 1 | 2 | -7
CC/C(=N\Nc1ccc([N+](=O)[O-])cc1[N+](=O)[O-])c1ccc(O)cc1 | 16 | 9 | i | 5 | 9 | 35* | 17* | -15
Cc1ccc(-c2nnn(CC(=O)N(Cc3cccs3)C(C(=O)NC(C)(C)C)c3ccco3)n2)o1 (stereo unspecified) | -14 | -142 | i | -4 | 1 | -7 | -3 | -10
O=C(O)CSCC(=O)N1CCN(S(=O)(=O)c2ccccc2)CC1 | -8 | 17 | i | 7 | / | -3 | -3 | 2
COCCn1c(C)cc(C(=O)COC(=O)c2cccnc2SC)c1C | -10 | -92 | / | / | / | 1 | -1 | /
COc1ccc(/C=N/NC(=O)c2cc[n+]([O-])cc2)cc1 | 1 | 0 | i | 12 | / | -1 | 1 | 6
O=S(=O)(c1ccc(F)cc1)N1CCN(C(=S)NCc2ccco2)CC1 | -16 | 12 | i | 3 | / | 0 | -2 | -2
CCOc1cccc(CN2CCCC(C(=O)Nc3ccc(-c4ccn[nH]4)cc3)C2)c1O (stereo unspecified) | -5 | -48 | i | -3 | -6 | 2 | 0 | 4
CC(C)(Oc1ccc(Cl)cc1)C(=O)OCC(=O)N1CCCC1 | 0 | / | i | 2 | -2 | 7 | 6 | -1
COc1ccccc1CCN1CCCC(CN(C)C(=O)c2ccoc2)C1 (stereo unspecified) | 0 | -3 | i | 2 | -30 | -4 | 0 | 3
O=C(CSc1nc2ccccc2[nH]1)NCC1CCCO1 (stereo unspecified) | -7 | -3 | i | 14 | / | 1 | 1 | -13
CN(Cc1ccccc1)C(=O)c1ccccc1NC(=O)c1ccco1 | -11 | / | i | 8 | -5 | -1 | 2 | 11
CCOC(=O)/C(=C/Nc1ccc(F)cc1)[N+](=O)[O-] | 3 | 9 | i | -8 | / | -1 | 3 | -13
Nc1nccnc1C(=O)N/N=C/c1ccco1 | -19 | -10 | i | 6 | / | -2 | 0 | 45
COc1cc(/C=C(/C#N)c2nc3ccccc3c(=O)[nH]2)ccc1O | 0 | 0 | i | -16 | / | -77 | 2 | 47
CCOC(=O)c1sc(=S)n(CC)c1N | -18 | / | i | 5 | / | 1 | 2 | 0
O=C(O)C1c2ccccc2C(=O)N(Cc2ccc(F)cc2)C1c1ccncc1 (stereo unspecified) | -6 | -8 | i | 2 | -17 | 2 | -1 | 1
O=C(CSc1ccc2ccccc2n1)Nc1nsc(-c2ccc(Cl)cc2)n1 | -11 | 10 | i | 48 | 6 | 3 | -2 | 22
Cc1ccc(CN2CCS(=O)(=O)CC2)cc1 | 8 | / | i | 1 | -2 | 2 | 4 | -11
Cc1cccc(CSc2nc3c(c(=O)n2C)SCC3)c1 | -5 | -17 | i | -18 | -14 | -7 | -20 | -6
NC(=O)c1cc(N)ccc1N1CCCCC1 | / | -3 | i | 5 | / | 0 | 1 | 8
CSc1ccc(CCNC(=O)C2CCCN(S(=O)(=O)N3CCOCC3)C2)cc1 (stereo unspecified) | 3 | 7 | i | -2 | -23 | -5 | -2 | 8
O=C(/C=C/c1ccccc1)NC1CCS(=O)(=O)C1 (stereo unspecified) | -3 | 27 | i | -4 | -9 | 7 | 8 | -1
O=S(=O)(NCCCc1ccccc1)c1ccc(Br)cc1 | 15 | -1 | / | / | 2 | -3 | -2 | /
COC(=O)N/N=C/c1c(C)cc(C)cc1C | -3 | / | i | 2 | / | 4 | 5 | -5

The list goes on (3 carried over from the part before).
SMILES | CSC inhib | Env fusion inh | Rce1 inh | PABP FP inh | UUG fidelity | MT1-MMP act inh | MT1-MMP act inh RFP | eIF4H inh | others
O=C(/C=C/c1ccccc1)NC1CCS(=O)(=O)C1 (stereo unspecified) | -3 | 27 | i | -4 | -9 | 7 | 8 | -1
O=S(=O)(NCCCc1ccccc1)c1ccc(Br)cc1 | 15 | -1 | / | / | 2 | -3 | -2 | /
COC(=O)N/N=C/c1c(C)cc(C)cc1C | -3 | / | i | 2 | / | 4 | 5 | -5
O=C(O)c1nnn(-c2ccc(F)cc2F)c1-c1ccccc1 | -5 | 12 | i | -6 | -14 | -1 | 2 | 0
CCN(CC(=O)NCc1cccs1)C(=O)c1ccc(Cl)c(Cl)c1 | -12 | -16 | / | / | 0 | 3 | -2 | /
COc1ccc(NC(=O)c2cc(-c3ccccc3)on2)cc1 | -9 | -134 | i | -8 | -8 | 2 | 2 | -1
OC(COc1ccc2c(c1)OCO2)CN1CCc2ccccc2C1 (stereo unspecified) | 7 | / | i | -10 | -13 | -1 | 4 | -4
O=C(Nc1ccc(-c2ccc3nncn3n2)cc1)C1CCCCC1 | -1 | -5 | i | -23 | -7 | -1 | 3 | -3
CC(=O)[C@@H]1[C@@H](C(=O)c2ccc(C)cc2)[C@]2(C(=O)Nc3ccccc32)[C@H]2C=Cc3cc(F)ccc3N12 | 36 | / | i | -9 | -3&1 | -6 | -1 | ?
O=C(O)C12CC3CC(C1)CC(n1cnc(Cl)n1)(C3)C2 | -4 | / | i | -4 | -6 | 7 | 5 | -14
Cc1oc(CN2CCOCC2)cc1C(=O)O | -3 | -12 | i | -7 | / | -2 | 1 | -18
O=c1[nH]cnc2c1cnn2Cc1ccccc1Cl | 0 | -34 | i | 10 | -10 | 2 | 1 | 1
O=C(Nc1cc(S(=O)(=O)N2CCOCC2)ccc1N1CCOCC1)c1cccc(Cl)c1 | / | 6 | / | / | -2 | -1 | 5 | /
CCCCNC(=O)C1CCN(Cc2ccc(OCc3ccccc3)cc2)CC1 | 16 | / | i | -13 | -10 | 3 | -5 | -1
COc1ccc(Cc2nc3ccc(C(=O)NCc4cccc(C)n4)cc3o2)cc1OC | / | -7 | / | / | -13 | 4 | 0 | /
CC(=O)OC1c2ccccc2C(=O)N1Cc1ccccc1 (stereo unspecified) | -1 | 13 | i | -6 | -10 | -1 | 2 | -2
O=c1[nH]cc(C(F)(F)F)cc1NS(=O)(=O)c1ccc([N+](=O)[O-])cc1 | 2 | 1 | i | 2 | / | 2 | 3 | 4
CN(c1ccc(F)cc1)S(=O)(=O)c1ccc(Cl)c(C(=O)Nc2ccc3c(c2)CCC3)c1 | 12 | / | i | -13 | -14 | 0 | -3 | -20
COC(=O)C1=C(CN2CCCc3ccccc32)NC(=O)NC1c1ccc(F)cc1 (stereo unspecified) | -1 | 14 | i | 11 | -41 | -15 | 1 | -3
COc1cc(/C=C2\SC(=S)N(c3cccnc3)C2=O)ccc1O | 4 | 15 | i | -9 | / | -26 | 58 | 71* | eIF4H inh retest=81*;PABP FP inh retest=10
CCOc1ccc(-c2cc(CCCC(=O)NCCc3ccc(OC)c(OC)c3OC)no2)cc1 | -22 | 41 | i | -4 | -10 | 0 | -6 | -6
COc1ccc(-c2csc(NC(=O)CSc3nnnn3C)n2)cc1OC | -3 | 6 | i | / | / | 2 | 0 | /
O=C(Nc1cnc2ccccc2c1)N1CCCCC1 | -5 | / | i | 1 | / | 5 | 2 | 2
COc1cc2c(cc1OC)CN(c1nc(CN3CCCCC3)nc3sc4c(c13)CCCC4)CC2 | 21 | -25 | i | -6 | / | 0 | -4 | -12
Cc1nc(SCC(=O)Nc2c(C)n(C)n(-c3ccccc3)c2=O)n[nH]1 | 4 | -196 | i | -9 | -25 | 0 | 6 | -1
COCC1CCCN(C(=O)c2ccc3oc(C(C)C)nc3c2)C1 (stereo unspecified) | 3 | -15 | i | -2 | -10 | 1 | 6 | 3
CCN(CC)S(=O)(=O)c1ccc(C(=O)Nc2cc3oc4ccccc4c3cc2OC)cc1 | 21 | 0 | i | 16 | / | 4 | -3 | -4
C/C(CC(=O)Nc1ccccc1C)=N\NC(=O)Cc1csc(N)n1 | -15 | -51 | i | -5 | / | 3 | 0 | -2

Compounds listed so far with a furan ring, fused or not:
SMILES | CSC inhib | Env fusion inh | Rce1 inh | PABP FP inh | UUG fidelity | MT1-MMP act inh | MT1-MMP act inh RFP | eIF4H inh | others
Cc1ccc(-c2nnn(CC(=O)N(Cc3cccs3)C(C(=O)NC(C)(C)C)c3ccco3)n2)o1 (stereo unspecified) | -14 | -142 | i | -4 | 1 | -7 | -3 | -10
O=S(=O)(c1ccc(F)cc1)N1CCN(C(=S)NCc2ccco2)CC1 | -16 | 12 | i | 3 | / | 0 | -2 | -2
COc1ccccc1CCN1CCCC(CN(C)C(=O)c2ccoc2)C1 (stereo unspecified) | 0 | -3 | i | 2 | -30 | -4 | 0 | 3
CN(Cc1ccccc1)C(=O)c1ccccc1NC(=O)c1ccco1 | -11 | / | i | 8 | -5 | -1 | 2 | 11
Nc1nccnc1C(=O)N/N=C/c1ccco1 | -19 | -10 | i | 6 | / | -2 | 0 | 45
Cc1oc(CN2CCOCC2)cc1C(=O)O | -3 | -12 | i | -7 | / | -2 | 1 | -18
CCN(CC)S(=O)(=O)c1ccc(C(=O)Nc2cc3oc4ccccc4c3cc2OC)cc1 | 21 | 0 | i | 16 | / | 4 | -3 | -4

(next part)
SMILES | CSC inhib | Env fusion inh | Rce1 inh | PABP FP inh | UUG fidelity | MT1-MMP act inh | MT1-MMP act inh RFP | eIF4H inh | others
CN(C)c1ccnc(Oc2ccc(F)cc2)c1C#N | / | 11 | i | 0 | -9 | 2 | 1 | 7
Cc1ccc(C)c(N2N=C(C(=O)N(CC(C)C)c3c(N)n(Cc4ccccc4)c(=O)[nH]c3=O)CCC2=O)c1 | -8 | 3 | i | 10 | -7 | -1 | 3 | 13
O=C(NCCN=C1NS(=O)(=O)c2ccccc21)c1ccco1 | -6 | / | i | -5 | -20 | -5 | 2 | -3
CC(=O)C1=C(O)C(=O)N(Cc2ccco2)C1c1ccc(F)cc1 (stereo unspecified) | -11 | / | i | 15 | -5 | -2 | 1 | -1
CCNS(=O)(=O)c1ccc(Br)c(C(=O)OC(C)C(=O)NCC2CCCCC2)c1 (stereo unspecified) | / | 4 | / | / | -14 | 4 | 0 | /
Cn1c(=O)c2ncn(CC(=O)Nc3ccc4c5c(cccc35)CC4)c2n(C)c1=O | 8 | -27 | i | 55* | -12 | -21 | -3 | 47* | eIF4H inh retest=80*;PABP FP inh retest=86*
CCCCn1c(N)c(N(Cc2ccccc2OC)C(=O)c2sccc2C)c(=O)[nH]c1=O | 2 | -2 | i | / | / | -6 | -4 | /
CCOC(=O)c1c(NC(=O)COc2ccccc2F)sc2c1CC(C)(C)NC2(C)C | 45 | -1 | + | / | -5 | -2 | -1 | /
Cc1c(C(=O)OC/C(O)=C(\C#N)c2nc3ccccc3[nH]2)oc2ccccc12 | 10 | -7 | i | -1 | -5 | -9 | 2 | 0
CS(=O)(=O)c1ccc(Cl)c(NC(=O)C2CCCN(C(=O)c3ccc(Cl)cc3)C2)c1 (stereo unspecified) | -7 | 9 | i | / | -5 | 3 | -5 | /
O=C(c1ccccc1)N1CCN(C(=O)C2CC2)CC1 | -8 | 8 | i | -1 | -11 | 1 | 6 | -5
CC1=C(C(=O)Nc2cccc(C(=O)NC(C)C)c2)SCCO1 | / | 21 | i | 8 | -10 | -2 | 2 | 12
